HNF4A DNA FP = change in binding of human HNF4A to DNA, primary screen, biochemical, fluorescence polarization, FITC-DNA; Hepatocyte nuclear factor 4-alpha (Homo sapiens), P41235; 1 h; activity change, % at 10 µM; 360,000 tested, 0.3% active; AID 1224865, 2016; in the data active = activity change above about 30%, passing the limit was not always enough;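 note: controls were the assay level and a saturating level of protein; the project sought stronger binding though the title names inhibitors; some compounds called inactive have numbers as strong as hits; positive values seem to mean higher polarization but the record does not say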
Target sequence (P41235 whole entry, looked up): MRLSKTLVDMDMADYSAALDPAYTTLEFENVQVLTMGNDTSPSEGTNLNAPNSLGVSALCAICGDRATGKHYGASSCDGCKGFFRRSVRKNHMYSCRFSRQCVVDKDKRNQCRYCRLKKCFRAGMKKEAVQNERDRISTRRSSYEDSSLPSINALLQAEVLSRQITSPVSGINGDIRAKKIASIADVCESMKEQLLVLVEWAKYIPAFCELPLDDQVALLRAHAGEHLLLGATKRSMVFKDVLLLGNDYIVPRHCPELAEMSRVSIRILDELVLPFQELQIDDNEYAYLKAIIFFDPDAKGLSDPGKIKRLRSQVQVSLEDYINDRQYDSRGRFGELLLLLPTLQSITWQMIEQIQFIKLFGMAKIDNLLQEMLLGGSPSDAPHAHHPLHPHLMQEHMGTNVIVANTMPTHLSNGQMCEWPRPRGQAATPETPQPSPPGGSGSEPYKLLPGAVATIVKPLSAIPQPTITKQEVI
FGF22 binding = binders of human FGF22 protein, primary screen, FGF22 synaptogenesis inhibitor project, biophysical, thermal shift, single point; Fibroblast growth factor 22 (Homo sapiens), Q9HCT0; recombinant FGF22 thermal shift, SYPRO orange fluorescence; percent of sucrose octasulfate shift, DMSO zero; calls only at 9.99 µM; 340,000 tested, 1.5% active; AID 651658, 2012;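 active = melting point raised past a set limit in the mean and every replicate; inconclusive = no clear call; three in four hits are not shown here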
Target sequence (Q9HCT0 whole entry, looked up): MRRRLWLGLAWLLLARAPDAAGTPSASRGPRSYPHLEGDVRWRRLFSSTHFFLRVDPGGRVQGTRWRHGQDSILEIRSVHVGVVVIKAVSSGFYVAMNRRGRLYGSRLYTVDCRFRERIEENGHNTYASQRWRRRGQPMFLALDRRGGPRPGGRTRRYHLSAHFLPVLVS
Ecoli growth = E. coli growth inhibition, primary screen, OD600 | Escherichia coli growth, 23 h; hits give low values | OD600 absorbance (test concentration not listed) | 330,000 tested, 0.21% active;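 active = OD600 absorbance below the run mean of sample wells minus 3.6 SD, in any replicate, cut at about 0.56 in these data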;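 note: stock transfer was 300 nL into about 60 µL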
Vif A3G = inhibitors of Vif binding to APOBEC3G peptide, primary screen, biochemical, TR-FRET, GST-Vif 1-94, biotin-A3G peptide, dose response retest (AID 1117319) | Virion infectivity factor (Human immunodeficiency virus type 1 group M subtype B (isolate … | TR-FRET GST-Vif / biotin-A3G peptide binding; higher % means a stronger effect; test concentration not given here; strong numbers were not always called active | inhibition, %, or IC50 in µM where a hit was titrated | 260,000 tested, 0.57% active;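 active = above the screen mean plus three standard deviations and confirmed in dose response; inconclusive = results disagree or hit not tested in dose response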;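 note: Vif residues 1-94 fused to GST binding biotinylated APOBEC3G peptide 110-148; 0% = full assay without inhibitor and 100% = GST in place of GST-Vif; retest series ran down from 100 µM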
RanGTP-Imp inh = inhibitors of RanGTP-importin-beta interaction, primary screen, biochemical, FRET, CFP-Ran, YFP-importin-beta, homogeneous; Ran GTPase (GTP-bound) - importin-beta complex; cell-free CFP-Ran/YFP-importin-beta FRET ratio; inhibition, % (concentration not given with the values); 300,000 tested, 1.1% active; AID 2216, 2009;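 active = most replicates above 15%; inconclusive = exactly half above 15%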;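 note: 0% = DMSO wells and 100% = Ran loaded with GDP instead of GTP; wells of about 40 µL received 100 nL stock; the first replicate is given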
UCH37 inh = inhibitors of human UCH37 deubiquitinase, primary screen, biochemical, Ub-AMC cleavage, fluorescence. Ubiquitin carboxyl-terminal hydrolase isozyme L5 (Homo sapiens), Q9Y5K5. purified proteasome/UCH37. inhibition, % (test concentration not listed). 330,000 tested, 0.33% active;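 active = mean of two replicates above 20%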;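 note: 0% = compound-free wells with enzyme and 100% = wells lacking proteasome; stock transfer was 100 nL into about 20 µL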
Target sequence (Q9Y5K5 whole entry, looked up): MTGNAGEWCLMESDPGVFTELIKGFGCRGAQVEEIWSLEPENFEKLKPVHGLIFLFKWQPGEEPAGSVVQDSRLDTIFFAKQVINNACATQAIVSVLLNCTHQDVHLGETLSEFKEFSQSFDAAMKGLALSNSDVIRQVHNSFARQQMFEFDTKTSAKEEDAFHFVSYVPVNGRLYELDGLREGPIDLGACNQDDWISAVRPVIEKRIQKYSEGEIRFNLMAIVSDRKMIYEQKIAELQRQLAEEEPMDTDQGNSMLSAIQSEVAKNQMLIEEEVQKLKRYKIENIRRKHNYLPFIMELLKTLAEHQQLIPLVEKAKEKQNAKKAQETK
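Material: Human UCH37 enzyme supplied as purified proteasome complex | Schedule: 30 min compound-proteasome preincubation then 25 min substrate reaction, room temperature | Detection: AMC fluorescence from Ub-AMC cleavage, excitation 355 nm, emission 460 nm | Benchmarks: Wells without proteasome as full block, compound-free enzyme plus substrate as uninhibited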
MLL AF4-AF9 inh = inhibitors of AF4 peptide binding to AF9, primary screen, biochemical, AlphaScreen, biotin-AF4 peptide, FLAG-AF9, single point; 350,000 tested, 0.47% active; inhibition, % at 10 µM;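 active = every replicate reaching a set inhibition limit, whatever the replicate mean, cut at about 25% in these data; inconclusive = mean inhibition reaches that limit but some replicates miss it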;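 note: 0% = plate neutral control median and 100% = total signal loss; the record names both 10 and 1 µM as test concentration; the first replicate is given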
* = called active by the depositor; i = inactive; ? = inconclusive; . = no result given; & = joins results of further samples. A portion of the library. The share of hits here may be higher or lower than overall.

structure	FGF22 binding	Vif A3G	MLL AF4-AF9 inh	Ecoli growth	RanGTP-Imp inh	UCH37 inh	HNF4A DNA FP
O=C(Nc1ccc(S(=O)(=O)Nc2nccs2)cc1)C1CCCCC1	.	4.5%	.	0.689	0.3	4.0	-1.5
CC(C)C[C@@H](CO)N1CCN(Cc2ccc(Br)cc2)CCC1=O	i	.	-1.2	.	6.5	0.8	-0.9
O=C(Cn1cccc1C(=O)c1ccccc1)NCCc1ccc(Cl)cc1	i	.	0.0	0.696	-2.2	3.7	-4.0
COc1ccccc1NC(=O)CSc1ncn(-c2ccccc2)n1	.	28.2%	.	0.644	-0.4	0.3	3.9
COc1ccc(C(=O)OCc2cc(C)ccc2C)cc1S(=O)(=O)N1CCCC1	i	-7.2%	0.9	0.728	.	3.2	3.1
O=C1N[C@@H](Cc2ccccc2)COC(=O)[C@@H](Cc2ccc(F)cc2)CC/C=C/C[C@@H]1CC(=O)N(CCO)Cc1ccccc1	i	.	-0.4	.	.	0.5	-3.5
Cc1noc(C)c1CSCC(=O)N(CCC(C)C)c1c(N)n(Cc2ccccc2)c(=O)[nH]c1=O	i	.	4.1	0.705	-1.2	4.4	1.1
CCOC(=O)/C=C1/SCC(=O)N1CC(=O)c1ccc[nH]1	i	2.9%	-2.2	0.678	.	3.1	10.7
CCOc1ccc(-c2c(=O)n(OCc3ccc([N+](=O)[O-])cc3)c3ccccc3[n+]2[O-])cc1	.	.	.	0.665	0.6	-2.4	.
Cc1ccc(NC(=O)C(C)N2CCc3ccccc3C2)cc1 (stereo not drawn)	i	.	-2.4	0.692	4.5	5.6	-0.2
COc1ccccc1CNC(=O)COC(=O)c1ccccc1SCC(=O)N1CCCC1	.	-7.1%	-1.1	0.664	-0.8	-1.5	-0.7
COc1cccc(C2=NOC(C(=O)Nc3ccccc3SC)C2)c1 (stereo not drawn)	.	-5.6%	.	0.676	1.6	1.8	0.0
CCC(C)[C@H](NC(=O)Nc1ccc(C(C)=O)cc1)C(=O)OC (stereo partly drawn)	.	2.0%	.	.	-2.5	3.4	-2.4
CCOC(=O)C1CCN(c2ncnc3c2cnn3-c2ccccc2)CC1	.	5.5%	.	0.684	2.4	1.9	-3.1
Cc1c(-c2ccc(Cl)cc2)[n+](=O)c2c(n1[O-])CCCC2	i	-13.3%	-1.0	0.615	5.8	3.3	0.2
CC1=NN(C(=O)c2ccc(Cn3cc(Br)c([N+](=O)[O-])n3)o2)C(O)(C(F)(F)F)C1 (stereo not drawn)	i	.	1.6	0.665	1.7	2.9	0.4
CC1CCc2c(nc3sc4c(c3c2N)CCCC4)C1 (stereo not drawn)	i	-1.4%	0.8	0.616	?	3.8	2.6
COc1ccc(NC2CC(=O)N(c3ccccc3)C2=O)cc1 (stereo not drawn)	.	3.0%	.	0.742	2.0	6.2	2.7
O=C(CN1CCN(Cc2ccccc2)CC1)N/N=C/c1ccc(Br)s1	i	.	-0.8	.	-0.3	.	-1.9
Cc1ccc(O)c(-c2cc(C(=O)Nc3ccc(S(=O)(=O)N4CC(C)OC(C)C4)cc3)[nH]n2)c1 (stereo not drawn)	.	-1.3%	.	0.742	-3.9	6.3	-2.0
Cc1cc(C(=O)COC(=O)c2ccccc2Br)c(C)n1CC1CCCO1 (stereo not drawn)	i	30.3%	1.9	0.731	-1.4	2.1	-0.4
O=C(CN1CCN(Cc2ccccc2Cl)CC1)N/N=C/C=C/c1ccccc1[N+](=O)[O-]	i	.	11.8	.	6.3	.	3.4
CC1CC(C)CN(S(=O)(=O)c2ccc(NC(=O)C3COc4ccccc4O3)cc2)C1 (stereo not drawn)	i	15.9%	0.3	0.692	?	0.1	-1.9
C(=N\N1CCN(c2ccccn2)CC1)/c1ccccn1	i	30.9%	1.9	.	2.1	.	2.4
CCCSc1nc(C)cc(C)c1S(=O)(=O)c1ccccc1C	.	2.1%	.	0.72	0.0	.	1.6
C=CCNC(=S)Nc1nc2c(cc1C(=O)OCC)CCCC2	i	-8.7%	-1.5	0.671	?	1.1	1.2
Cc1ccc(C2(c3noc(CN4CCC(c5ccncc5)CC4)n3)CCCC2)cc1	i	.	-0.8	0.702	-3.6	3.4	1.8
CCOc1ccc(OCCC(=O)NNC(=O)c2cc(C)oc2C)cc1	i	-3.7%	4.2	0.68	-2.1	1.5	3.7
COCCN1Cc2cccc(C(=O)NC(C)c3cccs3)c2C1=O (stereo not drawn)	.	-0.9%	.	0.715	0.8	-0.8	-4.3
CCOC(=O)CNC(=O)CSc1nc(N(C)C)nc(N2CCOCC2)n1	.	-0.9%	.	0.787	3.9	3.6	2.9
N#Cc1ccc(OCC(=O)NCCc2ccc(S(N)(=O)=O)cc2)cc1	.	4.4%	.	0.763	-0.6	-2.2	0.5
CN(C)C(CNS(=O)(=O)c1ccc(Cl)cc1F)c1ccco1 (stereo not drawn)	i	.	1.0	0.706	.	3.9	-2.0
O=C(O)c1ccc(NC(=O)c2cccc(N3C(=O)C4C5CCC(C5)C4C3=O)c2)cc1 (stereo not drawn)	.	-2.1%	.	0.678	2.6	1.2	0.2
O=C(Nc1cc(Cl)ccc1-n1cncn1)c1ccc([N+](=O)[O-])s1	.	15.8%	.	0.66	-1.6	2.1	7.9
Cc1cccc(-n2c(C)nc3cc(C(=O)NCc4ccc5c(c4)OCO5)ccc32)c1	i	.	-5.3	0.663	4.4	5.2	0.5
Cc1cc(S(=O)(=O)NC2CCCC2)ccc1-n1cnnn1	i	.	1.4	0.653	0.0	3.3	4.3
CCCNS(=O)(=O)c1cccc(C(=O)NNC(=O)c2cc(C)oc2C)c1	.	3.5%	-1.5	0.718	4.0	0.2	-3.0
NNc1ncnc2sc3c(c12)CCC3	i	19.6%	1.4	0.665	-1.3	3.9	-3.6
CN(/C=C/C(=O)C(F)(F)C(F)(F)F)Cc1ccccc1	.	-0.6%	.	0.696	1.9	6.2	-0.5
Cc1ccc(C(C#N)c2ccc(C(=O)c3ccc(F)cc3)cc2)cc1 (stereo not drawn)	.	-2.0%	.	0.656	-2.6	-0.7	2.5
CSc1nc2ccccc2cc1/C=C(\C#N)c1ccc(Cl)c(Cl)c1	.	3.4%	.	0.795	-1.2	-45.4	0.8
O=C(C1CCN(S(=O)(=O)c2cccc3cccnc23)CC1)N1CCN(Cc2ccccc2)CC1	i	.	-4.7	0.75	.	6.1	-0.2
Cc1cccc(N2CCN(S(=O)(=O)c3ccc4c(c3)CC(=O)N4C)CC2)c1C	i	.	-0.4	0.695	1.7	5.2	0.0
CCOc1ccc(OCCCC(=O)N(C)CC(=O)Nc2ccc(N3CCOCC3)cc2)cc1	.	10.7%	-6.5	0.596	-1.7	0.4	-7.0
C[C@@H](N)C(=O)NC[C@H]1CC[C@H](C(=O)N[C@@H](Cc2ccccc2)C(=O)O)CC1	i	-1.5%	0.1	.	-0.8	.	2.5
Nc1cc(=O)n(Cc2ccco2)c(=S)[nH]1	i	0.7%	-3.2	.	.	.	-4.8
CCc1nc2ccc(C(=O)NCc3ccc(OC)cc3)cn2c1N(CCC(C)C)CCN(C)C	i	.	1.9	.	.	.	-6.2
C=C1[C@@H](CCO)N(S(=O)(=O)C(C)(C)C)C[C@@H]1C	i	-6.3%	0.8	0.687	.	4.1	3.1
Cc1cc(C)c2oc(C(=O)Nc3ccc(S(=O)(=O)N4CCCC(C)C4)cc3)cc(=O)c2c1 (stereo not drawn)	i	.	-1.5	0.714	4.5	-13.0	2.3
CCCCNC(=O)C1(C)CCCCN1C(=O)c1cccs1 (stereo not drawn)	i	.	-2.9	.	.	.	3.3
CC(=O)N1CCN(S(=O)(=O)c2cccc(C(=O)Nc3ccc4c(c3)CCC4)c2)CC1	.	14.9%	.	0.729	0.7	4.4	1.8
Cc1cc(Cl)c(S(N)(=O)=O)cc1OCC(N)=O	.	4.3%	.	0.71	-1.3	3.3	2.2
COc1cc(NC(=O)COC(=O)CNC(=O)c2ccc(Cl)cc2)c(C)cc1[N+](=O)[O-]	.	0.9%	.	0.71	6.3	0.9	-1.8
COc1ccccc1-c1cnc2c(c1)C(=O)N([C@@H](C)CO)C[C@@H](C)[C@@H](CN(C)C(C)=O)O2	i	7.6%	0.4&-1.4&-2.4	.	.	.	1.9
CCOCC(=O)Nc1cc([N+](=O)[O-])ccc1C	.	.	.	0.693	0.4	2.5	1.0
CC1CCCN(C(=O)C2CCN(Cc3ccc4c(c3)OCO4)CC2)C1 (stereo not drawn)	i	-7.0%	0.6	0.689	2.5	1.7	-1.2
COc1ccc2[nH]c(C(=O)N3CCN(c4ccccc4F)CC3)c(C)c2c1	i	-16.5%	1.5	0.634	4.0	1.6	-3.6
c1ccc(CN2CCC(N3CCC(N4CCCCCC4)CC3)CC2)cc1	.	.	.	0.675	2.5	3.9	5.8
O=C(CN(c1ccc(F)cc1)S(=O)(=O)c1ccccc1)NC1CC2CCC1C2 (stereo not drawn)	i	.	-37.1	0.607	8.7	0.2	-0.2
O=C(NCCCN1CCCC1=O)c1cn(-c2ccccc2)nc1-c1ccccc1	i	-14.0%	1.2	.	0.0	.	0.7

The list continues:
structure	FGF22 binding	Vif A3G	MLL AF4-AF9 inh	Ecoli growth	RanGTP-Imp inh	UCH37 inh	HNF4A DNA FP
O=C(O)c1ccc(Sc2nnc3ccccn23)c([N+](=O)[O-])c1	i	.	-4.4	0.665	0.7	5.7	1.7
COc1ccc(CCN2CCCC(CN(C)Cc3cc(OC)c(OC)c(OC)c3)C2)cc1 (stereo not drawn)	i	.	1.8	0.63	1.3	1.1	3.3
CCOCCCNCc1cc(Cl)ccc1OCC	i	0.8%	-1.0	0.689	-2.1	1.3	-2.0
CCCCN(C(=O)c1cc(S(=O)(=O)N2CCOCC2)ccc1F)c1c(N)n(CCCC)c(=O)[nH]c1=O	i	.	0.9	0.717	.	-2.5	-4.6
CC(C)c1ccc(NC(=O)c2ccccc2NC(=O)C2CCCCC2C(=O)O)cc1 (stereo not drawn)	i	.	-3.2	0.663	4.0	-6.1	3.0
CC1(C)CC(=O)c2c(S(C)(=O)=O)sc(Br)c2C1	i	-4.8%	-0.8	0.59	0.6	3.0	-0.7
COC(=O)C1CC(O)CN1S(=O)(=O)c1ccc2ccccc2c1 (stereo not drawn)	i	-9.8%	1.8	0.647	.	-0.6	3.1
O=C(Nc1ccccc1)ON=C1c2ccccc2-c2ccccc21	i	-2.9%	-1.6	0.638	3.6	2.1	4.4
CC(C)OC(=O)Nc1ccc2c(c1)N(C(=O)CCN1CCN(CCO)CC1)c1ccccc1CC2	i	6.5%	2.7	0.715	-0.8	-1.0	3.3

Two of the compounds above, field by field:
COc1ccc(CCN2CCCC(CN(C)Cc3cc(OC)c(OC)c(OC)c3)C2)cc1 (stereo not drawn)
  FGF22 binding: i; Vif A3G: .; MLL AF4-AF9 inh: 1.8; Ecoli growth: 0.63; RanGTP-Imp inh: 1.3; UCH37 inh: 1.1; HNF4A DNA FP: 3.3

CC(C)c1ccc(NC(=O)c2ccccc2NC(=O)C2CCCCC2C(=O)O)cc1 (stereo not drawn)
  FGF22 binding: i; Vif A3G: .; MLL AF4-AF9 inh: -3.2; Ecoli growth: 0.663; RanGTP-Imp inh: 4.0; UCH37 inh: -6.1; HNF4A DNA FP: 3.0
